VDR inhibitor: Inhibitors of the vitamin D receptor (VDR): qHTS | Vitamin D3 receptor (Homo sapiens), P11473 | VDR-SRC2-3 peptide fluorescence polarization, 2 h | Potency, µM, for the others: max response, negative = inhibition, usual class: inhibitors | 400,000 compounds, 0.93% hits; active means well fitted inhibition curve with a large enough effect; inconclusive means small, poorly fitted or top-dose-only effect, or another doubt; inactive means no such curve, though single readings can be large or run the other way; further: series mostly up to about 120 µM
Target sequence (P11473 whole entry, looked up): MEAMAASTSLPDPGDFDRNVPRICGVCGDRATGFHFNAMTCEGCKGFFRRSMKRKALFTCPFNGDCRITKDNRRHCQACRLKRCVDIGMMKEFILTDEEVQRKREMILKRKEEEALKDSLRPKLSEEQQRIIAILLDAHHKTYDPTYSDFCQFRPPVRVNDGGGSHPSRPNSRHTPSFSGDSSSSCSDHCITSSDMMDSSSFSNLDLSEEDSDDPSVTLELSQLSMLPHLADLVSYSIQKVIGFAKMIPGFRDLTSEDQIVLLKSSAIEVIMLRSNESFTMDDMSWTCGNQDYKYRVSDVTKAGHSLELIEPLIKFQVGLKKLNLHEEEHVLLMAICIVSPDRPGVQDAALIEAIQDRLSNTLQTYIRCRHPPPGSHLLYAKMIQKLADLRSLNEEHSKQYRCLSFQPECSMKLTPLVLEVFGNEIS
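After 23 nl compound addition and a short centrifugation, plates sat for 2 hours at ambient temperature; polarization of fluorescence then indicated loss of VDR binding to peptide SRC2-3.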
* hit, by the source's call; ? = inconclusive; & = joins results of further samples; [ ] = dose if it differs, or a comment. On the % scale 0 is the no-effect control and ±100 the full control effect; potency means the concentration at half of the fitted maximal effect. Some of the compounds tested; rates above refer to the full screens.

The first 4 compounds as a preview:
VDR inhibitor	compound
8%	CCN(CC)C(=O)COc1ccc2c(c1)C(=O)CC(C)(C)O2
19%	Cc1ccc(C(=O)CCC(=O)NNC(=O)c2ccccc2O)cc1
2%	CC(OC(=O)c1ccc(NC(=O)CC#N)cc1)C(=O)NC(c1ccccc1)c1ccccc1 (stereo unspecified)
6%	Cn1c(=S)n(C)c2ccccc21

The whole of this part, from the start:
VDR inhibitor	compound
8%	CCN(CC)C(=O)COc1ccc2c(c1)C(=O)CC(C)(C)O2
19%	Cc1ccc(C(=O)CCC(=O)NNC(=O)c2ccccc2O)cc1
2%	CC(OC(=O)c1ccc(NC(=O)CC#N)cc1)C(=O)NC(c1ccccc1)c1ccccc1 (stereo unspecified)
6%	Cn1c(=S)n(C)c2ccccc21
10%	CCOC(=O)[C@H]1[C@H]2COc3cc(OC)ccc3[C@@H]2N2C(=O)c3cc(C)ccc3NC(=O)[C@@]12C
-7%	C=C(C)C1CC=C(C)/C(=N/NC(=O)C2CC2c2ccccc2)C1 (stereo unspecified)
-22%	O=C(c1cccc([N+](=O)[O-])c1)N1CCN(c2cccc(Cl)c2)CC1
22µM*	Cc1[nH]n(-c2ccccc2)c(=S)c1C=Nc1cccc([N+](=O)[O-])c1
20%	O=c1cc(-c2ccccc2)nc2n1Cc1ccccc1-2
-19%	O=C(O)Cn1c(=S)sc2ccccc21
8%	COc1ccc(-c2cn[nH]c2-c2ccc(OC)cc2O)cc1
-17%	CCc1ccc(C(=O)NNC(=O)C2CSC3(C)CCC(=O)N23)cc1 (stereo unspecified)
-1%	CC1CCC(NC(=O)COC(=O)c2ccco2)CC1 (stereo unspecified)
-10%	O=C(NC1CCCCC1)NC1CCN(C(=S)NCc2ccco2)CC1
-6%	O=C(C1=NN[C@@H]2C(=O)N(c3ccccc3C(F)(F)F)C(=O)[C@H]12)c1ccc2ccccc2n1
-15%	CCCCC12CN3CCN(CC(C3)/C1=N\NC(=O)Nc1ccccc1)C2
2%	O=C(Nc1ccc(N2CCN(C(=O)c3ccco3)CC2)cc1)c1cc(Br)ccc1Cl
-2%	CCOC(=O)N1CCC(NC(=O)CSCc2nc(-c3cccc(OC)c3)oc2C)CC1
-20%	Cc1cc(C)n(C(=O)CNc2ccc(C)c(C)c2)n1
-15%	NCCSC1CC(=O)N(c2ccc(F)cc2)C1=O (stereo unspecified)
-8%	COc1ccc2[nH]cc(CCNc3ncncc3-c3cccc(C#N)c3)c2c1
-12%	O=C(NCCS(=O)(=O)N1CCCCCC1)c1ccccc1
-9%	O=C(CN(C(=O)CNC(=O)c1ccco1)c1ccc2c(c1)OCCO2)NC1CCCCC1
-7%	CCOCCCNC(=O)C1CCN(C(=O)Nc2ccc(Cl)cc2)CC1
6%	O=C(NCCN1CCc2ccccc2C1)C1CCN(S(=O)(=O)N2CCCCC2)CC1
1%	O=C(CCc1nc(-c2ccccc2)no1)NCc1ccco1
0%	CCOc1ccc(-c2cc(C(=O)N3CCC(C)CC3)c3ccccc3n2)cc1
-10%	CCOC(=O)c1cccc(NC(=O)Cn2ncc3c(=O)oc4ccccc4c32)c1
6%&16%	Cc1cccc(CNC(=O)Cn2ccc3cc(S(=O)(=O)N4CCCCCC4)ccc32)c1
9%	Cc1oc2c(C)c3oc(=O)c(CCC(=O)N4C[C@H]5C[C@@H](C4)c4cccc(=O)n4C5)c(C)c3cc2c1C

3 entries drawn at random from the list so far, as already listed:
VDR inhibitor	compound
-20%	Cc1cc(C)n(C(=O)CNc2ccc(C)c(C)c2)n1
-2%	CCOC(=O)N1CCC(NC(=O)CSCc2nc(-c3cccc(OC)c3)oc2C)CC1
6%&16%	Cc1cccc(CNC(=O)Cn2ccc3cc(S(=O)(=O)N4CCCCCC4)ccc32)c1

(continued)
VDR inhibitor	compound
-11%	CCOc1ccc(C(=O)Nc2cccc(NC(=O)c3ccc(C(C)(C)C)cc3)c2)cc1Br
22%	COc1ccc(CC(=O)NCCC2=CCCCC2)cc1
-6%	Cc1cc(C)c2c(=O)[nH]c(SCC(=O)NCCc3ccccc3)nc2n1
-12%	CC1Cc2ccccc2N1CC(=O)NC(=O)NC1CCCC1 (stereo unspecified)
-12%	COc1ccc(C2=NS(=O)(=O)N(C)C(C(=O)N3CCN(C)CC3)=C2)cc1
13%	COc1ccc(CCN(C)C(=O)N2CCOCC2)cc1OC
15%	Cc1ccsc1-c1nc(CN2C[C@@H](C)O[C@@H](C)C2)c(C)o1
-12%	Cc1c(Nc2c3ccccc3nc3ccccc23)c(=O)n(-c2ccccc2)n1C
9%	COc1ccccc1N1CC(C(=O)Nc2nc(C)cs2)CC1=O (stereo unspecified)
21%	CCCC(=O)NC(=S)Nc1cccc(NC(=O)c2ccccc2)c1
11%	Cn1c(N)c(C(=O)Nc2c(Cl)cccc2Cl)sc1=S
2%	CC1(C)CC(=O)C(/C=N/c2ccccn2)=C(O)C1
-4%	Cc1ccc(Cl)cc1NC(=O)COC(=O)Cn1cnc2c1c(=O)n(C)c(=O)n2C
-1%	Cc1cccc(NC(=O)CCNS(=O)(=O)c2ccc3[nH]c(=O)oc3c2)c1
-9%	CCCc1cc(C(=O)Nc2ccc(C)cc2)no1
-4%	O=C(CCSCCC(=O)Nc1c(F)c(F)c(F)c(F)c1F)Nc1c(F)c(F)c(F)c(F)c1F
1%	O=C(NCCCCCCCCCNC(=O)C(F)(F)F)C(F)(F)F
-8%	Cc1ccc(CNC(=O)c2cccc(Nc3nc4ccccc4n4nnnc34)c2)cc1
-10%	CCn1c(SCc2ccc(F)cc2)nc2c(c1=O)SCC2
-12%	COc1ccc(N(C)C(=O)Nc2ccc3nsnc3c2)cc1
-9%	O=C(Nc1ccc(OC(=O)c2cccnc2)cc1)c1cccnc1
-9%	Cc1ccc(Cl)cc1-n1c(=O)cc(N2CCN(c3ccccc3)CC2)[nH]c1=O
?	COc1ccccc1/C=C1/C(=O)N(c2cc(C)cc(C)c2)C(c2cccc([N+](=O)[O-])c2)S1(=O)=O (stereo unspecified)
-9%	COc1ccccc1-n1cccc1C=O
-3%	O=C(CCNC(=O)C1CCN(S(=O)(=O)c2ccccc2)CC1)NCCc1cccc(F)c1
-21%	O=C(Nc1ccc(C(=O)Oc2ccccc2)c(O)c1)c1ccccc1
?	CC(C)S(=O)(=O)C1=NSC2=NC(=O)/C(=C\c3ccc(-c4ccccc4)o3)C(=N)N21
-3%	Cc1ccc(NC(=O)CCCC(=O)OC(C)C(=O)c2ccccc2)cc1 (stereo unspecified)
-12%	CCn1nc(C(=O)NNC(=O)c2ccccc2OCc2c(C)noc2C)c2ccccc2c1=O
14%	c1cc2c(cn1)cnc1cscc12
-18%	Cc1ccc(OCC(=O)N2CCN(C(=O)c3ccncc3)CC2)cc1
15%	CC(=O)N1c2ccccc2C(=O)C1N1CCN(c2cccc(C)c2C)CC1 (stereo unspecified)
31%[activator]	COc1ccc2[nH]c3nc(SCC(=O)NC4CC4)nnc3c2c1
35µM*	Cc1[nH]n(-c2ncc(-c3ccccc3)s2)c(=O)c1C(c1ccc(Br)cc1)C(C#N)C#N (stereo unspecified)
8%	CCn1cc(C(=O)NCCc2ccc(Cl)cc2)c(=O)c2cc(S(=O)(=O)N3CCOCC3)ccc21
-2%	CC(=O)NCc1c(I)c(NC(C)=O)c(I)c(C(=O)O)c1I
-10%	O=C(CCNS(=O)(=O)c1cccc2nsnc12)NC1CCN(Cc2ccccc2)CC1
10%	Cc1ccccc1NC(=O)c1ccc2c(c1)c(C)c(C)n2Cc1ccccc1
6%	Cc1cccc(NC(=O)CSCC(=O)Nc2cc(Cl)ccc2N2CCOCC2)c1
2%	CCOc1ccc(/C=C/C(=O)OCC(=O)NCCc2ccc(OCC)c(OCC)c2)cc1OC
0%	Cn1c(=O)c2cc(C(=O)NC3CCCCCC3)sc2c2ccccc21
16%	COCC(C)n1c(C)cc(C(=O)COC(=O)CCc2nc3ccccc3c(=O)[nH]2)c1C (stereo unspecified)
-8%	CC(=O)c1ccc(-n2nnnc2SCC(=O)NC2CCCCC2)cc1
-3%	O=C(NC1CCCCCC1)c1cc(S(=O)(=O)N2CCC3(CC2)OCCO3)ccc1F
6%	O=C(CSc1ncc(-c2ccccc2)[nH]1)Nc1ccc(F)cc1F
-23%	O=C(CSc1nnnn1C1CCCCC1)NNC(=O)c1ccco1
-6%	COc1ccc(CNc2ccnc(-c3ccccc3C(F)(F)F)n2)c(OC)c1
-8%&1%	CC1Cc2cc(S(=O)(=O)NCc3ccccc3)ccc2N1C(=O)C1CCC1 (stereo unspecified)
-1%	O=C1c2ccccc2NC(c2ccc(-c3cccc(Cl)c3)o2)N1O (stereo unspecified)
4%	CCn1nnc(-c2ccccc2NC(=O)C(F)(F)F)n1
-7%	COc1ccc(C(C)=O)cc1COC(=O)c1ccc(S(=O)(=O)N2CCOCC2)cc1
-30%	O=Cc1c(Sc2ccccc2)nc2ccccn2c1=O
-2%	CCOC(=O)Nc1ccc([N+](=O)[O-])cc1C
?	Clc1ccccc1-c1nc(N2CCNCC2)c2ccccc2n1
-10%	CCOC(=O)C[C@H]1c2cc(F)ccc2S(=O)(=O)N1C1CCCCC1
?	Cc1sc(C(C2C(=O)CC(C)(C)CC2=O)C2C(=O)CC(C)(C)CC2=O)cc1[N+](=O)[O-]
-7%	O=C(NCc1nc2ccccc2[nH]1)C1=C[C@@H](c2ccc(Br)cc2)C[C@@H](OCc2ccc(CO)cc2)O1
5%	CCCCN1CCC(=O)NC1=O
8%	COc1cc2ccccc2cc1-c1nnc(COc2ccccc2)o1
-23%	O=C(Nc1ccn(Cc2ccccc2)n1)c1cccc(F)c1

Other results:
VDR inhibitor	compound
4%	CN1CCCN(C(=O)/C=C/c2ccc(Cl)cc2Cl)CC1
13%	O=C(O)c1cc(-c2cc3ccccc3o2)nn1-c1ccccc1
3%	CCN(Cc1ccccc1)S(=O)(=O)c1csc(C(N)=O)c1
-11%	CC(C)(C)OC(=O)N1CCC(C(=O)Nc2cccc(C(=O)NCc3ccccc3)c2)CC1
27%	CN(Cc1ccccc1)S(=O)(=O)c1ccc(Cl)c(C(=O)OCC(=O)NC2CCS(=O)(=O)C2)c1 (stereo unspecified)
-4%	CCOC(=O)C1=CC[C@@H](c2ccco2)N(S(=O)(=O)c2ccc(C)cc2)[C@H]1C(=O)OCC
10%	COc1ccccc1Nc1nc(N)nc(CSc2nnc(C)s2)n1
-1%	CCN(Cc1ccccc1)Cc1c(O)ccc2c(=O)c(-c3ccc(Cl)cc3)c(C(F)(F)F)oc12
?	COc1ccc(-c2nc(-c3ccccc3)c(NCc3ccccc3)o2)cc1
?	Nc1ccccc1C#CC(=O)c1ccccc1
-6%	NC(=O)c1nsc(C(=O)N(Cc2ccccc2F)C(C(=O)NCC2CCCO2)c2ccc(F)cc2)c1N (stereo unspecified)
-8%	CC(C)OCCCNc1nc2c(cnn2C)c(=O)[nH]1
?	COc1ccc(OCC(=O)Nc2ccc3c(c2)n(C)c(=O)n3C)cc1
3%	CCOC(=O)c1ccc(-c2c(C(=O)OCC)oc3cc(O)c(CC)cc3c2=O)o1
-1%	CCOC(=O)c1[nH]c2cc(OC)c(OC)cc2c1NC(=O)c1ccc2c(c1)OCO2

Some of the entries so far, with each value named.
O=C(CCNC(=O)C1CCN(S(=O)(=O)c2ccccc2)CC1)NCCc1cccc(F)c1
  VDR inhibitor: -3%
O=C(Nc1ccc(C(=O)Oc2ccccc2)c(O)c1)c1ccccc1
  VDR inhibitor: -21%

New compounds follow:
VDR inhibitor	compound
-12%	O=C(/C=C/c1ccco1)Nc1sc2c(c1C(=O)O)CCC2
4%	O=C(Nc1nnc(-c2ccccc2F)s1)Nc1ccccc1F
10%	Cc1cc(C)c2nc(SCC(=O)Nc3ccc(S(=O)(=O)N4CCCC4)cc3)c(C)cc2c1
21%	Cc1ccccc1NC(=O)c1ccc(C)c(S(=O)(=O)NCc2cccnc2)c1
10%	O=C(NCCNC(=O)c1ccccc1Br)c1cccnc1
-5%	O=C(OCC(=O)N1CCN(C(=O)c2ccco2)CC1)c1ccc(Cl)nc1
-14%	C[C@@H]1NC(=O)/C(=C\c2ccccc2Cl)NC1=O
-1%	COc1cc(NC(=O)c2ccccc2-c2ccccc2)cc(OC)c1
3%	CC(=O)NCCN1C(=O)C2C3c4ccccc4C(c4ccccc43)C2C1=O (stereo unspecified)
-4%	CCOC(=O)C1CCCN(Cc2cc(=O)oc3cc(C)ccc23)C1 (stereo unspecified)
-19%	Cc1cccc(C(=O)Nc2cc(=O)n(C)c(=O)n2C)c1
20%	CCN(C(=O)COC(=O)c1nc(Cl)ccc1Cl)c1c(N)n(Cc2ccccc2)c(=O)[nH]c1=O
4%	Cc1cc(C(=O)Nc2cc(C(C)(C)C)on2)c(C)o1
7%	O=C(NCc1cccnc1)C(=O)Nc1nc2ccccc2s1
13%	COc1ccc(CNCCCNCc2ccc(OC)c(OC)c2)cc1OC

2 of the compounds above, as labelled records:
> COc1ccc(C2=NS(=O)(=O)N(C)C(C(=O)N3CCN(C)CC3)=C2)cc1
  VDR inhibitor: -12%
> COc1ccc(CCN(C)C(=O)N2CCOCC2)cc1OC
  VDR inhibitor: 13%

(further entries)
VDR inhibitor	compound
-12%	CCn1cc(C(=O)NCC2COc3ccccc3O2)c2cc(OC)c(OC)cc2c1=O (stereo unspecified)
2%	COc1cccc(CN(C)CC(O)COC(c2ccccc2)c2ccccc2C)c1 (stereo unspecified)
2%	COc1ccc2ccccc2c1/C=N/n1cnnc1
5%	CCOC(=O)c1c(C)[nH]c(C)c1S(=O)(=O)N1CCN(c2ccccc2OC)CC1
8%	CC1C(=O)Nc2ccccc2N1C(=O)c1ccc(F)cc1F (stereo unspecified)
7%	COc1ccc(-c2cc(C(F)(F)F)nc(NCc3ccccc3)n2)cc1
-10%	O=c1cnc2cnc(Oc3cccc(Cl)c3)nc2n1C[C@H]1CCCO1
7%	CCOC(=O)CNC(=O)CSc1nc2sc(C)c(C)c2c(=O)n1C

Bioassay records from PubChem BioAssay.
